Screening data deposited in PubChem BioAssay by several laboratories.
CBX7 inh = CBX7 inhibition, primary AlphaScreen; normalised signal (fraction of DMSO) (concentration not given with the values); 1.1% of 66,000 active; AlphaScreen His6-CBX7 / biotin-H3K27me3 peptide binding; stronger effect = lower value; O95931; in the data active = normalised signal below about 0.5;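 note: 100 nL library stock added to about 20 µL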
Target sequence (O95931 whole entry, looked up): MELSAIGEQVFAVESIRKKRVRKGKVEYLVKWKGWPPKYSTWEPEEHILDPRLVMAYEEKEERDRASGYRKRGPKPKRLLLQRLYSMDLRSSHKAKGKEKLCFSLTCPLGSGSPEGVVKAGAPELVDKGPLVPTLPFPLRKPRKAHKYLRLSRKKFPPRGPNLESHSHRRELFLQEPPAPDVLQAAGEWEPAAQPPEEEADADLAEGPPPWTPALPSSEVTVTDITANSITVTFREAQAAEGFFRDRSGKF
CBX7 inh z-score = further read-out of CBX7 inh, marked with its call; z-score; measured here: z-score of CBX7 signal; some inactives read as strong as hits; reference of the scale not given here;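 same signal on another scale; lower means less binding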
Active calls of the source: *. This is a subset, so the mix of outcomes need not match the whole.

molecule,CBX7 inh,CBX7 inh z-score
CC(=O)Nc1c2c(nn1-c1cccc(C)c1C)CSC2,1.1,1.5
O=C(CCCC1=NS(=O)(=O)c2ccccc2N1)Nc1cccc(C(F)(F)F)c1,0.98,-0.46
Cc1cccc(N2CCN(C(=O)C3CCN(S(=O)(=O)c4cnc[nH]4)CC3)CC2C)c1 (stereo not given),1,0.41
Cc1ccc(S(=O)(=O)c2nc(-c3ccccc3F)oc2N2CCCCC2)cc1,0.48*,-4.9*
COc1cc2[nH]c(=O)n(CCCCCC(=O)N3CCN(c4ccccn4)CC3)c(=O)c2cc1OC,0.98,-0.4
CCc1ccc(NC(=O)CN(c2cc(C)cc(C)c2)S(=O)(=O)c2c(C)noc2C)cc1,1.1,1.8
COc1ccc(CC(=O)Nc2c3c(nn2-c2ccc(C)cc2)CS(=O)(=O)C3)cc1,1.1,0.72
O=C(CN1CC(c2ccccc2)CC1=O)Nc1ccc(Cl)c(C(F)(F)F)c1 (stereo not given),0.98,-0.43
CCOC(=O)c1cccc(C(=O)Nc2ccc(Cl)cn2)n1,0.97,-0.85
COc1ccc(-n2nc(C(=O)NCC(=O)N(C)Cc3ccccc3)c3ccccc3c2=O)cc1,1.1,3
COCCNC(=O)Cc1ccc(-n2c(=O)[nH]c3ccsc3c2=O)cc1,0.95,-0.39
O=C(CN1C(=O)COc2ccc(S(=O)(=O)N3CCOCC3)cc21)N1CCCCC1,1.1,2.6
CCn1cc(C(=O)Nc2cc(Cl)ccc2OC)c2cc(OC)c(OC)cc2c1=O,0.95,-0.67
Cn1c(SCC(=O)Nc2ccc3c(c2)OCO3)nnc1-c1c[nH]c2ccccc12,0.86,-2.5
COC(=O)C(C)Sc1nnc(Cc2cc(=O)[nH]c(=O)[nH]2)n1-c1ccc(OC)cc1 (stereo not given),0.88,-1.9
COCCCNC(=O)C1CCC(=O)N1Cc1ccc(F)cc1 (stereo not given),1,1.3
CC1CC(C)CN(CCCNC(=O)CC2Oc3ccccc3NC2=O)C1 (stereo not given),1.4,2.1
CCC1=Nc2cc(C(=O)NCCCOC(C)C)ccc2Sc2ccccc21,0.9,-1.1
CCC(=O)N1CCc2cc(Br)cc(S(=O)(=O)NCCc3ccc(C)cc3)c21,1,0.88
COc1ccc(OC)c(CCNC(=O)Cn2nc(Cc3ccncc3)c3ccccc3c2=O)c1,1.1,1.3
CCOc1ccc(NS(=O)(=O)c2ccc3[nH]cc(C(=O)N(C)Cc4ccccc4)c(=O)c3c2)cc1,0.91,-1.2
Cc1ccc(OCC(O)CN2CCOCC2)c(C)c1 (stereo not given),1,0.28
Cc1cc(N2CCN(C(c3ccccc3)c3ccccc3)CC2)nc(-c2ccccc2O)n1,1,0.054
Clc1ccc(Cn2c(-c3cncs3)nc3ccccc32)cc1Cl,1.1,2
CCOc1ccc(CCNC(=O)CCc2nnc3ccc(N4CCOCC4)nn23)cc1,0.95,-0.87

Filtered by structure: the entries above containing fluorine
molecule,CBX7 inh,CBX7 inh z-score
O=C(CCCC1=NS(=O)(=O)c2ccccc2N1)Nc1cccc(C(F)(F)F)c1,0.98,-0.46
Cc1ccc(S(=O)(=O)c2nc(-c3ccccc3F)oc2N2CCCCC2)cc1,0.48*,-4.9*
O=C(CN1CC(c2ccccc2)CC1=O)Nc1ccc(Cl)c(C(F)(F)F)c1 (stereo not given),0.98,-0.43
COCCCNC(=O)C1CCC(=O)N1Cc1ccc(F)cc1 (stereo not given),1,1.3

Remaining list, next part.
molecule,CBX7 inh,CBX7 inh z-score
CCc1c(C)nc2c(C(=O)NCc3ccc(F)cc3)c[nH]n2c1=O,1,0.96
CCOC(=O)c1cnc2ccc(C)cc2c1Nc1cccc(C)c1,0.99,-0.083
CCc1ccc(N(CC)C(=O)CCc2nc(-c3ccccc3F)no2)cc1,0.93,-1.4
O=C(NCc1ccc2c(c1)OCO2)c1ccc2c(=O)n(CCc3ccccc3)c(=O)[nH]c2c1,0.96,-1.1
COc1ccc(CNC(=O)c2cccc3c2C(=O)N(c2ccc(OC)cc2)C3)cc1,0.92,-1.4
COc1ccc(NC(=O)c2cc3c(n(-c4ccc(C)cc4)c2=O)CCCC3=O)c(OC)c1,1.1,1.5
COc1ccc(N(C)C(=O)Cc2c(C(=O)O)[nH]c3ccc(Cl)cc23)c(OC)c1,1,-0.0083
Fc1ccc(OCc2nn3c(-c4ccccc4)nnc3s2)cc1,1,0.74
Cc1ccc(CCNC(=O)C2CC(=O)N(C3CCCCCCC3)C2)cc1 (stereo not given),1,0.31
COc1cc(-c2nc(-c3ccccc3)c(-c3ccc(F)cc3)[nH]2)cc2c1OCO2,0.93,-2.4
COc1ccc(-c2ccc(=O)n(CC(=O)Nc3ccc(Cl)cc3F)n2)cc1,1,1.3
Cc1cc2cc(CCNC(=O)CCc3ccccc3)c(=O)[nH]c2cc1C,1.1,2.3
COc1ccc(-c2cc(C(F)(F)F)nc(NC3CCCC3)n2)cc1,2,7.9
CCC1=Nc2cc(C(=O)NCCc3ccc(Cl)cc3)ccc2Sc2ccc(Cl)cc21,0.93,-3.5
COc1ccc(Nc2c(-c3ccc(N4CCOCC4)cc3)nc3cnccn23)cc1OC,0.95,-2.2
Cc1ccc(NC(=O)C2=CCN(S(=O)(=O)c3ccc(F)cc3)CC2)c(C)c1,0.97,-0.54
COc1ccccc1NC(=O)c1cnc(Nc2ccc(C)c(Cl)c2)c2ccccc12,1.1,2.3
O=C(CCC1=NS(=O)(=O)c2ccccc2N1)Nc1ccc(Oc2ccccc2)cc1,0.74,-5.5
CCc1nnc(NC(=O)CN2C(=O)COc3ccc(S(=O)(=O)N(CC)CC)cc32)s1,1,0.11
Cc1cccc(NC(=O)c2csc3c2CCCC3)c1C,1,0.36
Cc1cccc(CCNS(=O)(=O)c2ccc3c(c2)CCC(=O)N3)c1,0.95,-2.1
COc1ccc(C(=O)Nc2c3c(nn2-c2ccc(Oc4ccccc4)cc2)CSC3)cc1OC,1.1,0.094
CCOC(=O)c1cnc2ccc(C)cc2c1Nc1ccc(N(CC)CC)cc1,0.42*,-6.3*
CCN(C(=O)Cn1nc(Cc2cccnc2)c2ccccc2c1=O)c1ccc(C)c(C)c1,0.91,-3
O=c1[nH]c2ccc(Cl)cc2c(-c2ccccc2)c1NS(=O)(=O)c1ccccc1,1.1,0.7

New compounds follow:
molecule,CBX7 inh,CBX7 inh z-score
Cc1ccc(N2CC(c3nc4ccccc4n3C)CC2=O)cc1C (stereo not given),0.93,-1.6
CCOC(=O)c1c(C)n(C)c2ccc(OCC(O)CN3CCCCC3C)cc12 (stereo not given),0.99,-0.29
CNC(=O)c1ccc2nc(N3CCC(C)CC3)sc2c1,0.97,-0.56
COCc1cc(=O)n2[nH]c(-c3ccc(OC)cc3)cc2n1,0.87,-2.4
COc1cccc(NC(=O)c2cn(CC(C)C)c(=O)c3c2c2ccccc2n3C)c1,1.1,1.1
CC(=O)OCC1OC(Nc2cc(Cl)cc(Cl)c2)C(OC(C)=O)C(OC(C)=O)C1OC(C)=O (stereo not given),0.96,-0.86
CCOc1ccc2nc(NC(=O)c3ccc(S(=O)(=O)N(CC)CC)cc3)sc2c1,1.1,0.53
CCCCNC(=O)c1ccc2c(c1)N=C(CC)c1ccccc1S2,1,0.5
COCCNC(=O)CSc1nc(-c2ccc(Cl)cc2)[nH]c1-c1ccccc1,0.99,-0.15
O=C1CN(C(=O)c2ccc3c(c2)OCO3)C(c2ccc(F)cc2)c2cc(Cl)ccc2N1 (stereo not given),0.69,-5.6
COc1ccc2nc(NC(=O)CSc3nc4ccc(C)cc4[nH]3)sc2c1,0.97,-0.5
CCc1ccc(N(CC(=O)Nc2ccc3c(c2)OCCO3)S(=O)(=O)c2c(C)noc2C)cc1,0.96,-0.79
CC1CC(=O)Nc2ccc(N)cc2N1C (stereo not given),1,0.015
Cc1ccc2c(c1)N(CCC(=O)NC1CCC(C)CC1)C(=O)CO2 (stereo not given),1.1,1.8
Cc1ccc(C(=O)Nc2cc(-c3nc4ncccc4o3)ccc2C)cc1Cl,1,-0.0053
O=C(Cn1cnc2sc3c(c2c1=O)CCCC3)NCC(=O)Nc1ccccn1,1,0.55
CCOC(=O)C1CCCN(c2c(NCCCN3CCN(CC)CC3)c(=O)c2=O)C1 (stereo not given),0.99,-0.19
Cc1ccc(C)c(N2CC(c3nc4ccccc4n3CCOc3ccccc3)CC2=O)c1 (stereo not given),0.7,-1.9
Cc1ccnc(Nc2nc(-c3ccc(F)c(C)c3)cs2)c1,0.88,-1.4
CCC1CCCCN1C(=O)c1cc(-c2ccc(F)cc2)on1 (stereo not given),1.1,0.75
Cc1cccc(NC(=O)CSc2ncc(-c3ccccc3)[nH]2)c1,0.83,-4.7
COc1ccc(OC2C(=O)N(c3cc(C)ccc3C)C2c2ccc(OC)c(OC)c2)cc1 (stereo not given),0.85,-0.53
Cc1nn2cc(-c3ccccc3)nc2s1,0.82,-4.4
COc1cccc(NC(=O)CSc2nccn2-c2cccc(OC)c2)c1,0.86,-2.5
COc1ccc(-c2nnc(Nc3ccc(Cl)c(Cl)c3)c3ccccc23)cc1,1,-0.051

A different layout for some results above.
molecule: Cc1cccc(NC(=O)c2csc3c2CCCC3)c1C
  CBX7 inh: 1; CBX7 inh z-score: 0.36
molecule: Cc1cccc(CCNS(=O)(=O)c2ccc3c(c2)CCC(=O)N3)c1
  CBX7 inh: 0.95; CBX7 inh z-score: -2.1
molecule: COc1ccc(C(=O)Nc2c3c(nn2-c2ccc(Oc4ccccc4)cc2)CSC3)cc1OC
  CBX7 inh: 1.1; CBX7 inh z-score: 0.094
molecule: CCOC(=O)c1cnc2ccc(C)cc2c1Nc1ccc(N(CC)CC)cc1
  CBX7 inh: 0.42*; CBX7 inh z-score: -6.3*

The listing continues:
molecule,CBX7 inh,CBX7 inh z-score
Cc1cc(C)c(NS(=O)(=O)c2cnc[nH]2)c(C)c1,1,0.15
COc1ccc(-c2nc(CN3CCC(C(=O)NC4CCCC4)CC3)c(C)o2)cc1OC,1,0.62
COc1ccc(OC)c(NC(=O)c2cc3c(n(-c4ccc(Cl)cc4)c2=O)CC(C)(C)CC3=O)c1,1.1,2.8
OC(c1ccccc1)c1nnc(SCc2ccccc2)n1-c1ccccc1 (stereo not given),1.1,1.3
Cc1ccc(C)c(Cc2c(C)nc3c(C(=O)NCCc4ccccc4Cl)cnn3c2C)c1,1,0.55
Cc1ccc(CCNC(=O)C2CCN(c3nnc(-n4cccc4)s3)CC2)cc1,0.99,-0.46
CCC1(C)CC(CCN2C(=O)c3ccccc3C2=O)(c2ccc(C)cc2)CCO1 (stereo not given),0.99,-0.069
CCOc1ccc2nc(N3CCC(C(=O)N4CCC(C(N)=O)CC4)CC3)sc2c1,1,0.028
Clc1ccccc1Cn1c(COc2ccccc2)nc2ccccc21,1.3,3.9
COc1ccc(OC)c(NC(=O)c2cnc3scc(C)n3c2=O)c1,1.1,0.47
Cc1cc2nc(-c3ccc(NCc4cc(Cl)ccc4O)cc3)oc2cc1C,0.95,-1.3
Cc1c(Cl)cccc1N1CC(c2nc3ccccc3n2C)CC1=O (stereo not given),0.97,-0.54
Cc1ccc(CNC(=O)c2ccc(CNc3c(NC4CCCC4)c(=O)c3=O)cc2)cc1,0.9,-0.22
Cc1ccc2nc(SCC(=O)Nc3nccs3)[nH]c2c1,0.82,-2.8
Cc1c(C(=O)NC2CCCCC2C)oc2ccc(S(=O)(=O)N3CCC(C)CC3)cc12 (stereo not given),0.97,-0.75
CC(C)Oc1ccc(C(=O)Nc2c3c(nn2-c2cccc(Cl)c2)CS(=O)(=O)C3)cc1,0.92,-0.5
Fc1ccccc1-c1nc(Nc2cnc3ccccc3c2)c2ccccc2n1,1,0.93
CCC1CCCCN1C(=O)Cn1nc(Cc2ccncc2)c2ccccc2c1=O (stereo not given),1,0.22
CCOC(=O)c1cnc2cc(C(F)(F)F)ccc2c1Nc1cccc(C(F)(F)F)c1,1.2,2.7
Cc1ccc(Nc2ncc(C(=O)N3CCCC3)c3ccccc23)cc1Cl,1.1,3.8
O=C(Cn1ncc2c1-c1ccccc1OC2)N1CCN(c2ncccn2)CC1,1,1.3
COc1cc2[nH]c(=O)n(CCC(=O)NC3CCN(Cc4ccccc4)CC3)c(=O)c2cc1OC,0.95,-1.6
Cc1cccc2nc(-c3cccs3)c(Nc3ccc(C(C)C)cc3)n12,0.91,-0.72
CC(NC(=O)c1nn2c(C(F)(F)F)cc(-c3cccs3)nc2c1Br)C1CC2CCC1C2 (stereo not given),1,0.36
CCOc1ccc(S(=O)(=O)NCCc2c(C)[nH]c3ccc(F)cc23)cc1,0.92,-1.8

The results go on:
molecule,CBX7 inh,CBX7 inh z-score
Cc1ccc(CN2C(=O)c3ccccc3C2C(=O)NCCCN2CC(C)CCC2C)cc1 (stereo not given),1.1,0.92
Cc1ccc2nc(SCC(=O)Nc3ccccc3C(F)(F)F)[nH]c2c1,0.83,-2.4
COc1ccc(CC(=O)NCCc2cc3ccc(C)cc3[nH]c2=O)cc1,1,0.6
Cc1oc(-c2cccs2)nc1CN1CCCC(C(=O)NC2CCCCCC2)C1 (stereo not given),1.2,1.8
COc1ccc(-c2noc(COc3ccc(Cl)cc3Br)n2)cc1OC,1.1,0.88
COc1nnc(-c2ccc(C)cc2)c2ccccc12,1.1,0.28
CCN(CC)C(=O)c1ccc2c(c1)N(Cc1ccccc1)C(=O)c1ccccc1S2(=O)=O,1.1,0.9
Cc1ccc(Cl)cc1N1CCN(S(=O)(=O)c2cnc[nH]2)CC1,1,0.15
CCc1nnc(NC(=O)c2cc3sccc3n2Cc2ccc(F)cc2)s1,1,0.46
CCn1cc(C(=O)NCCCN2CCOCC2)c2cc(OC)c(OC)cc2c1=O,1.1,0.9
